From PubChem
HSD17B inhib: blocks hydroxysteroid 17-beta dehydrogenase activity; Q99714; recombinant HSD17B10, NADH fluorescence kinetic; many of its hits are not listed in these tables; Potency, µM (top dose mostly 57.1 µM), for the others: at the top dose activity change, negative = inhibition, actives largely listed as inhibitors; hit rate 7.6% among 75,000; AID 893; active = well fitted inhibition curve with a large enough effect; inconclusive = small, poorly fitted or top-dose-only effect; inactive = no such curve, though single readings can be large or run the other way;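 also: the protocol describes HADH2 (HSD17B10) and not the HSD17B4 of the title; nearly all actives have a fitted effect of over 70% in size; most hits overshoot -100% by far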
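His-tagged E. coli-expressed HADH2 at 20 nM in 100 mM Tris-HCl pH 9.0 with 0.01 % Tween-20, preincubated 15 min with compound at room temperature. Reaction with 1 mM NAD+ and 90 uM beta-hydroxybutyryl coenzyme A; NADH fluorescence (360/450 nm) read kinetically over 4 min, last minus first point.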
* marks the source's active call; other numbers are inactive results; ? = inconclusive; [ ] = dose if it differs, or a comment. % is scaled to controls: 0 for no effect and ±100 for the full control effect; potency is read from the fitted curve at half-maximal effect. Not all compounds are listed, so the mix of outcomes need not match the whole.

SMILES	HSD17B inhib
COc1cc(OC)c(/C=C2/C(=O)Nc3ccccc32)c(OC)c1	3%
N/C(CC(=O)NCCOc1ccccc1)=N\O	6%
CN1C(=O)N(C)C2C1N(C)S(=O)(=O)N2C (stereo not drawn)	7%
O=C(Nc1cccnc1N1CCOCC1)c1cc2ccccc2oc1=O	0%
COc1cccc(-c2cc(C(=O)NCc3ccc(Cl)cc3)no2)c1	-23%
COc1ccc(CN(C(=O)c2ccco2)c2ccc(Br)cc2)cc1OC	-11%
CCOc1ccccc1C1CC(c2ccc(Br)cc2)Nc2nc(N)nn21 (stereo not drawn)	-2%
CCN1C(=O)[C@H]2[C@H]3[C@H](O)[C@H](O)C/C(=N/NC(=O)OCc4ccc(OC)cc4)[C@@H]3CC[C@@H]2C1=O	5%[11.4 µM]
CCOC(=O)CN(C(=O)CNC(=O)c1ccco1)C(C(=O)NC1CCCC1)c1ccccc1OCC (stereo not drawn)	1%
Cc1ccc(CN2C(=O)CCC2C(=O)NC(C)C)cc1 (stereo not drawn)	7%
CCOCCCN1CC(C(=O)NCCc2ccc(C)cc2)CC1=O (stereo not drawn)	2%
NCC(O)CC(=O)O (stereo not drawn)	-3%
O=C(CCn1cnc2ccccc2c1=O)Nc1cccc(Cl)c1	10%
COc1cccc(N2C(=O)CC(Nc3ccc(N4CCOCC4)cc3)C2=O)c1 (stereo not drawn)	-3%
CCOC(=O)N1CCC(n2c(SCC(=O)Nc3nccs3)nc3ccsc3c2=O)CC1	-11%
O=C(NCc1ccc(F)cc1)C1CCN(S(=O)(=O)N2CCCCC2)CC1	-3%
O=C(CSc1nnc(CNC(=O)c2cccs2)o1)NCc1ccc(F)cc1	-7%
CCOC(=O)C1=C(O)CSC1=Nc1ccc(Cl)cc1	-5%
C=C(C)C1CC=C(C(=O)O)CC1 (stereo not drawn)	-2%
c1n[nH]c(SCCCCSc2ncn[nH]2)n1	2%
C/C(=N/NC(=O)c1ccncc1)c1ccccc1Cl	-1%[11.4 µM]
O=C(Oc1c(Cl)cc(Cl)c2cccnc12)N1CCCCC1	-10%
Cc1cccc(C(OC(=O)c2ccco2)C(=O)NCc2ccccc2)n1 (stereo not drawn)	6%
CCCCOc1ccc(/C(N)=N/O)cc1	7%
Cc1ccccc1C1CC(c2ccc(F)cc2)Nc2nc(N)nn21 (stereo not drawn)	4%
CCOC(=O)C1CCCN(C(=O)CN2C(=O)COc3ccc(C(C)(C)C)cc32)C1 (stereo not drawn)	5%
CC(C)(C)N(Cc1cc2ccccc2[nH]c1=O)C(=O)c1cccnc1	-5%
CCOC(=O)c1c(C)n(C)c2ccc(OCC(O)CN3C(=O)c4ccccc4S3(=O)=O)cc12 (stereo not drawn)	8%
N#CCCCSc1nnc(CSc2nc3ccccc3s2)n1-c1ccccc1	-18%
Cc1ccc(C)c2[nH]c(=O)c(CN(CC3CCCO3)S(=O)(=O)c3ccc4c(c3)OCCO4)cc12 (stereo not drawn)	-2%

Some of these compounds in order of molecular weight, falling:
SMILES	HSD17B inhib
O=C(Oc1c(Cl)cc(Cl)c2cccnc12)N1CCCCC1	-10%
CCOC(=O)C1=C(O)CSC1=Nc1ccc(Cl)cc1	-5%
CCCCOc1ccc(/C(N)=N/O)cc1	7%

Remaining list, next part
SMILES	HSD17B inhib
COCCCNC(=O)C1C2C=CC3(CN(Cc4ccc(C)cc4)C(=O)C13)O2 (stereo not drawn)	-14%
COc1ccc2[nH]c(=O)c(CN(C(C)=O)c3cccc(C)c3)cc2c1	32µM*
Cc1nc2nc(C)c(CCC(=O)N3CCc4ccccc43)c(C)n2n1	-3%
CCOC(=O)N1CCC(Nc2c(NCCN3CCN(Cc4ccccc4)CC3)c(=O)c2=O)CC1	3%
CCC(=O)N1c2ccc(S(=O)(=O)CCC(=O)Nc3nccs3)cc2CC1C (stereo not drawn)	-6%
Cn1nnnc1CCOCCc1nnnn1C	1%
CCCCOC(=O)COc1ccc(Cl)cc1Cl	-2%
CCOC(=O)C1CCCN(c2ncnc3c2[nH]c2cccc(OC)c23)C1 (stereo not drawn)	25µM*
c1ccc(OCCOCCSc2ncccn2)cc1	4%
CCn1c(SCC(=O)OC(C)C)nnc1-c1cccc(Cl)c1	1%
CCCc1nc2oc3c(NCCN4CCOCC4)ncnc3c2c2c1CCCC2	-9%
CC(C)(C)c1ccc(OCC(=O)O)cc1	18%
COc1ccc(OCC(=O)N2CCN(c3cccc(C(F)(F)F)c3)CC2)cc1	-9%
NC(=O)CSc1nnc(COc2ccccc2)n1CCc1ccccc1	6%
ON(CCc1ccccn1)Cc1ccccc1	0%[11.4 µM]
Clc1ccccc1-c1ccc2ncnc(N3CCNCC3)c2c1	0%
O=C(N/N=C1/C[C@@H](O)[C@@H](O)[C@@H]2[C@@H]3C(=O)N(Cc4ccccc4)C(=O)[C@H]3CC[C@@H]12)OCc1ccccc1	2%[11.4 µM]
O=C(O)CCCC(=O)Nc1c(F)c(F)c(F)c(F)c1F	-1%
COC(=O)c1cccc(NC(=O)CSc2nnc(COc3ccc(C#N)cc3)n2-c2ccccc2)c1	5%
CCN(CC)CCNC(=O)c1ccc(N2CCCCC2)c(NS(=O)(=O)c2ccc(C)cc2)c1	3%
COC1CCC(C(=O)c2ccc3nc4c(cc3c2)CCCO4)CC1 (stereo not drawn)	4%
CCN1C(=O)/C(=C2\C=Cc3ccccc3N2CC)OC1=S	-6%
Cc1cc(C)nc(-n2nc(C)c(Oc3ccccc3O)c2C)n1	?
CCC(C)(C)c1ccc(Oc2cccc(C(=O)O)c2)cc1	2%[11.4 µM]
COc1ccc(S(=O)(=O)N2CCC(C(=O)NCc3ccccn3)CC2)cc1C	?
O=S(=O)(Nn1cnnc1)c1ccccc1Cl	-3%
Cc1cccc(NC(=O)C2CCCN2S(=O)(=O)c2ccc(F)cc2)c1C (stereo not drawn)	6%
O=C(Nc1ccc(N2CCN(C(=O)c3ccco3)CC2)cc1)c1ccc2c(c1)OCO2	-21%
COC(=O)[C@@]1(Cc2ccc(F)cc2)[C@H]2c3cc(C(=O)N(C)C)n(Cc4cc(C)n(C)n4)c3C[C@H]2CN1C(=O)c1ccccc1	-9%
CCN(CCCNC(=O)c1cn(CC)c2ccc(S(=O)(=O)N(C)C)cc2c1=O)c1cccc(C)c1	9%
CC1(C)CC(NC(=O)C23CCC(C)(C(=O)C2)C3(C)C)CC(C)(C)N1 (stereo not drawn)	-1%
CCC(C)C1NC(=O)C(CCNCS(=O)(=O)O)NC(=O)C(NC(=O)C(CCNCS(=O)(=O)O)NC(=O)C(NC(=O)C(CCNCS(=O)(=O)O)NC(=O)CCCCC(C)C)C(C)O)CCNC(=O)C(C(C)O)NC(=O)C(CCNCS(=O)(=O)O)NC(=O)C(CCNCS(=O)(=O)O)NC(=O)C(C(C)CC)NC1=O (stereo not drawn)	?
Nc1ncnc2c1c(I)cn2C1OC(CO)C(O)C1O (stereo not drawn)	-3%
Fc1ccc(N2CCN(C(c3cccs3)c3nnnn3CCc3ccccc3)CC2)cc1 (stereo not drawn)	-1%
COc1cc(CC(=O)Nc2ncc(C)s2)cc(OC)c1OC	1%
Clc1ccc(OCc2nn3c(C4CCCCC4)nnc3s2)c(Cl)c1	-7%
CCCC(=O)NCCc1c2n(c3ccc(OC)cc13)Cc1ccccc1-2	4µM*
Cn1c(=O)n(C)c2cc(C(=O)Nc3ccc4c(c3)OCO4)ccc21	6%
COc1cccc(Cn2c(=O)cnc3cnc(N4CCOCC4)nc32)c1	?
Cn1c(SCC(=O)N2CCN(c3ccccc3)CC2)nnc1-c1cc2ccccc2o1	2%
O=C(Cc1ccc(-n2c(=O)[nH]c3ccccc3c2=O)cc1)N1CCN(c2ccccc2)CC1	?
O=C(Nc1ccc(N2CCOCC2)cc1)NC1CCCCC1	8%
COc1cc(-c2nnc(Cn3cc(C(F)(F)F)ccc3=O)o2)cc(OC)c1OC	-2%
O=C(O)C1C2C=CC3(CN(CC(O)COc4ccccc4)C(=O)C13)O2 (stereo not drawn)	3%
CN(C(=O)c1cccnc1)c1nnc(-c2cccnc2)s1	429%[activator]
Cn1c(Cn2c(=O)sc3ccccc32)nnc1SCc1ccccc1	3%
CCn1c(CSc2ncccn2)nnc1SCC(=O)N1CCc2ccccc21	-2%
O=C(Nc1cccnc1)c1cn(-c2ccccc2)nc1-c1cccs1	-26%
O=C(c1cc(Cl)ccc1Cl)N1CCN(c2ccccn2)CC1	?
COc1ccccc1N1CCN(c2ncnc3nc[nH]c23)CC1	7%
NC(=O)C1(N2CCCCC2)CCN(CC(=O)Nc2cc(Cl)ccc2Cl)CC1	3%
CC(=O)Nc1ccc(C2(O)COc3ccccc3O2)cc1 (stereo not drawn)	-27%
O=C(CN1C2=NCCN2c2ccccc21)C12CC3CC(CC(C3)C1)C2	7%
Cc1cc(C)n(CC(O)COc2cccc(OCC(O)Cn3nc(C)cc3C)c2)n1 (stereo not drawn)	-4%
COc1cccc(C2CC(C(F)(F)F)n3ncc(C(=O)O)c3N2)c1 (stereo not drawn)	-1%
CCN1CCc2nc(NC(=O)Cc3ccc4c(c3)OCCO4)sc2C1	2%
O=C(NC(Cc1ccccc1)C(=O)O)c1ccc(S(=O)(=O)N2CCCC2)cc1 (stereo not drawn)	1%
COCCCNS(=O)(=O)c1ccc2c(c1)OCCO2	4%
COc1cc(-c2nnc3sc(-c4cccnc4)nn23)cc(OC)c1OC	-7%
COc1ccccc1N1CCN(C(=O)CSc2nc(-c3ccccc3)cc(=O)[nH]2)CC1	2%

By substructure: the compounds so far containing a COOH group (8)
SMILES	HSD17B inhib
NCC(O)CC(=O)O (stereo not drawn)	-3%
C=C(C)C1CC=C(C(=O)O)CC1 (stereo not drawn)	-2%
CC(C)(C)c1ccc(OCC(=O)O)cc1	18%
O=C(O)CCCC(=O)Nc1c(F)c(F)c(F)c(F)c1F	-1%
CCC(C)(C)c1ccc(Oc2cccc(C(=O)O)c2)cc1	2%[11.4 µM]
O=C(O)C1C2C=CC3(CN(CC(O)COc4ccccc4)C(=O)C13)O2 (stereo not drawn)	3%
COc1cccc(C2CC(C(F)(F)F)n3ncc(C(=O)O)c3N2)c1 (stereo not drawn)	-1%
O=C(NC(Cc1ccccc1)C(=O)O)c1ccc(S(=O)(=O)N2CCCC2)cc1 (stereo not drawn)	1%

The main list resumes; the four compounds before the break are reprinted first.
SMILES	HSD17B inhib
O=C(NC(Cc1ccccc1)C(=O)O)c1ccc(S(=O)(=O)N2CCCC2)cc1 (stereo not drawn)	1%
COCCCNS(=O)(=O)c1ccc2c(c1)OCCO2	4%
COc1cc(-c2nnc3sc(-c4cccnc4)nn23)cc(OC)c1OC	-7%
COc1ccccc1N1CCN(C(=O)CSc2nc(-c3ccccc3)cc(=O)[nH]2)CC1	2%
Cc1nc2ccc(S(=O)(=O)Nc3ccccc3C)cc2s1	-14%
COc1cccc(Cn2nnc(C(=O)Nc3cc(C)ccc3OC)c2N)c1	-5%
O=C(Oc1cccc(N2C(=O)CCC2=O)c1)C1CC(=O)N(c2ccc(F)cc2)C1 (stereo not drawn)	-5%
O=C(c1cc(C(F)(F)F)cc(C(F)(F)F)c1)N1CCC2(CC1)CCN(c1ccncc1)CC2	4%
CCC1=C2CC[C@H]3C(=O)N(c4ccccc4)C(=O)[C@H]3[C@H]2[C@@]2(C)C(=NCc3ccccc3)OC(=O)N2C1=O	-9%
Cc1nonc1NC(=O)Nc1cccnc1	2%
COCCn1c(=O)c(-c2cccc(F)c2)nc2cncnc21	?
CC1(C)CC(=O)c2c(nc3ccccc3c2N)C1	25µM*
Cc1cc(C)nc(SCCCn2c(=O)[nH]c3ccccc32)n1	5%
Cc1ccc(C(c2sc3ncnn3c2O)N2CC(C)CC(C)C2)cc1 (stereo not drawn)	-1%
Cn1nnnc1SCc1cc(=O)n2ccsc2n1	-5%
CC(C)(C)NC(=O)Cn1nnc(-c2ccccc2Cl)n1	7%
COc1ccc(S(=O)(=O)N(C)CC(=O)O)c2ccccc12	2%
N#Cc1ccccc1-n1c(N)c(C(=O)N2CCCC2)sc1=S	?
NC(=O)NC(=O)COC(=O)CCCc1c[nH]c2ccccc12	10%
CCOC(=O)c1[nH]c(C(=O)O)c(CCN(CC)CC)c1C	-1%
CCN1C(=O)C(O)(C2COC(C)(C)CC2=O)c2cc(Br)ccc21 (stereo not drawn)	9%
CCOc1ccc(NC(=O)CCS(=O)(=O)c2ccc3c(c2)CCCN3C(C)=O)cc1	-4%
CCOc1ccc(NC(=O)c2ccc(N)cc2)cc1	-6%
COc1ccc(CNC(=O)C2COc3ccccc3O2)c(OC)c1 (stereo not drawn)	-4%
Cn1c(SCc2nc3ccccc3[nH]2)nnc1-c1cccs1	-11%
CCNC(=O)c1ccccc1-c1nc(-c2ccccc2Cl)no1	3%
Cn1nnnc1SCc1cn2cccnc2n1	25µM*
N#CCC(=O)NCCCOC(=O)Nc1ccc(Cl)c(Cl)c1	25µM*
CC1CCCN(C(=O)CSCC(=O)N=c2sc3ccccc3n2C)C1 (stereo not drawn)	-2%
Oc1ccc2c(c1)OCC1c3cc4c(cc3OC21)OCO4 (stereo not drawn)	-1%
